CtBP-E1A inh: qHTS Assay for Inhibitors of the CtBP/E1A Interaction; CtBP / adenovirus E1A interaction (AlphaScreen); AlphaScreen GST-E1A/His-CtBP binding, 1536-well; stronger effect = lower value; control for the full effect not named in the record; activity change, % (concentration not given with the values); 340,000 tested, 0.49% active; in the data active means activity change below about -65%; inconclusive means about -30% to -65%; inactive means above about -30%; also: % is scaled to controls: 0 for no effect and ±100 for the full control effect
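In 5 uL wells, 23 nL compound meets equimolar GST-E1A and His-CtBP (5X stock 125 nM each) for 2 h, 37 °C. Beads (5X, 50 ug/mL) then 1 h, 37 °C, dark.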
D2 PAM: Beta-Arrestin HTS for Positive Allosteric Modulators of the Human D2 Dopamine Receptor: Potentiators; D(2) dopamine receptor (Homo sapiens), P14416; DiscoveRx D2 beta-arrestin cells, luminescence, 90 min; 100% = 57 uM dopamine signal; potentiation, % (test concentration not listed); 360,000 tested, 0.23% active; AID 624464, 2012; active = potentiation of 50% or more; inconclusive = 30% to 50%; inactive = 30% or less;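 also: compound concentration not given in the record; tested on top of an EC20 dose of dopamine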
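PathHunter beta-arrestin assay in DiscoveRx D2 cells. Compounds were added with an EC20 of dopamine (50 nM final) for 90 min at 37 deg C. Luminescence was read 1 h after detection reagent, with 57 uM dopamine as the EC100 control.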
gsp ag: qHTS for Agonist of gsp, the Etiologic Mutation Responsible for Fibrous Dysplasia/McCune-Albright Syndrome: qHTS; gsp mutant cells, cAMP HTRF, 30 min; control for the full effect not named in the record; Potency, µM (series often up to 76.9 µM), without a hit: at the highest dose activation (cAMP increase), hits mostly activators; 340,000 tested, 0.13% active; AID 624287, 2012; active = well fitted activation curve with a large enough effect; inconclusive = small, poorly fitted or top-dose-only effect, or another doubt; inactive = no such curve, though single readings can be large or run the other way; cell line not stated here;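 also: phosphodiesterase inhibitor Ro 20-1724 added with compounds to block cAMP breakdown; potency is read from the fitted curve at half-maximal effect; nearly all actives have a fitted effect of over 60% in size; about a fifth of the inactives were tested at one dose only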
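Cells stably selected in G418 were plated at 2000/well, grown 16-24 hr, then given compounds in DMSO with the PDE inhibitor […] (300 uM solution added) for 30 min at 37C; cAMP was read by HTRF.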
Six1-Eya2 inh: qHTS Assay for Inhibitors of the Six1/Eya2 Interaction | activity change, % (test concentration not listed) | 360,000 tested, 0.56% active | AlphaScreen GST-Six1/His-Eya2 binding, biochemical; stronger effect = lower value; control for the full effect not named in the record; in the data active = activity change below about -65%; inconclusive = about -30% to -65%; inactive = above about -30%; also: % is scaled to controls: 0 for no effect and ±100 for the full control effect; compound concentration not given in the record
Target sequence (O00167 whole entry, looked up): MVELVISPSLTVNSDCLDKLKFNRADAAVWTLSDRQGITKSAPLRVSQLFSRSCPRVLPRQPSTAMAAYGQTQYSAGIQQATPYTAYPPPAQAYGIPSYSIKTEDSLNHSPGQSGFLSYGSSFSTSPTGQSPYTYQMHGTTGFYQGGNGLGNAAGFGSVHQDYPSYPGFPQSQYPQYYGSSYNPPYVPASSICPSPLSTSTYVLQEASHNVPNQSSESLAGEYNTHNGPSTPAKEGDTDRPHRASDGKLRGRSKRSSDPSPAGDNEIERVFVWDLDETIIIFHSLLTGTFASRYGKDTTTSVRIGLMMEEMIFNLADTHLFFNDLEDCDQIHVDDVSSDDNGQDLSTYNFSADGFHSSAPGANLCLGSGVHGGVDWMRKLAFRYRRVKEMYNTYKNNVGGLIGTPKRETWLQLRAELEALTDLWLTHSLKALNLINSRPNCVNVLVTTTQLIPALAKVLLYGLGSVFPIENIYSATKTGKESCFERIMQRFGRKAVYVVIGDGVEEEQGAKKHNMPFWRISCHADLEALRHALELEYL
Target sequence (Q15475 whole entry, looked up): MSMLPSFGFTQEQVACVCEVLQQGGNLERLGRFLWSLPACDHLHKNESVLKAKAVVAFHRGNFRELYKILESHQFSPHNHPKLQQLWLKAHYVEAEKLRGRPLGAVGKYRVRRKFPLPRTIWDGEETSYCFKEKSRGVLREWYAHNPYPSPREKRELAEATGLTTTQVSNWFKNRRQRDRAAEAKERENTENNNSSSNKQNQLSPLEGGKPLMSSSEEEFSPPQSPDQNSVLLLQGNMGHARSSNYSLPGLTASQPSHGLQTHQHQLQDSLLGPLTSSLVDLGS
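Homogeneous AlphaScreen proximity assay pairing GST-Six1 with His-tagged Eya2 (added as 5X mix: 250 nM and 500 nM) in 50 mM Tris pH 8.0, 300 mM NaCl, 1 mM TCEP. Glutathione donor and nickel acceptor beads; 1 h, 37 °C, dark.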
gsp antag: qHTS for Antagonists of gsp, the Etiologic Mutation Responsible for Fibrous Dysplasia/McCune-Albright Syndrome: qHTS. gsp-mutant cells, cAMP HTRF, 30 min; control for the full effect not named in the record. Potency, µM (titrated, usually from 76.9 µM), inactives show at the highest dose activity change, negative = inhibition, actives largely listed as inhibitors. 340,000 tested, 0.4% active. AID 624288, 2012; active = falling curve of any shape with a large fitted effect; inconclusive = falling curve, mostly with a smaller effect; inactive = flat or rising curve; cell line not stated here;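 also: intracellular cAMP measured with PDE inhibitor Ro 20-1724 present during compound exposure; potency is read from the fitted curve at half-maximal effect; % is scaled to controls: 0 for no effect and ±100 for the full control effect; nearly all actives have a fitted effect of over 65% in size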
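HTRF cAMP measurement after 30 min RT detection following 30 min, 37C compound treatment alongside […] (added as 300 uM solution) in G418-selected cells seeded at 2000/well and grown 16–24 h.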
D2 agonist: Beta-Arrestin HTS for Positive Allosteric Modulators of the Human D2 Dopamine Receptor: Agonists; 360,000 tested, 0.084% active; AID 624465, 2012; D(2) dopamine receptor (Homo sapiens), P14416; DiscoveRx PathHunter D2 beta-arrestin, luminescence, 90 min; 100% = 57 uM dopamine signal; activation, % (no concentration beside the values); in the data active = activation above about 40%; inconclusive = about 15% to 40%; inactive = below about 15%; also: compound concentration not given in the record; the text of the record calls up to 30% inactive
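Agonist mode: compounds alone added to overnight-plated D2 PathHunter cells for 90 min at 37 C, with 57 uM final dopamine (EC100) defining full response. Beta-arrestin recruitment detected by chemiluminescent reagent, read after 1 h at ambient temperature.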
An asterisk follows results filed as active; ? = inconclusive; / = no result given; [ ] = another dose, or the depositor's remark.

SMILES	CtBP-E1A inh	D2 PAM	gsp ag	Six1-Eya2 inh	gsp antag	D2 agonist
CCC(NC(=O)OCc1ccccc1)C(=O)Oc1ccc2ccc(=O)oc2c1 (centres undefined)	-1	0	-1%	-23	-2%	-4.1
CCCn1c(SCC(=O)Nc2ccc3c(c2)OCO3)n[nH]c1=O	3	-1	23%	11	1%	-2.7
CSc1ccc(CN2CCC(C)(Oc3ccc(-n4ccnc4)cc3)C2)cc1 (centres undefined)	?	-23	/	?	/	11
O=S(=O)([O-])C/C(=C\c1ccc(Cl)cc1)c1cc[n+](CCO)cc1	1	-6	13%	8	7%	2.0
CC(C)(C)OC(=O)NCCc1nnc(SCc2ccccc2)o1	/	-19	-4%	8	-2%	-3.6
CC1=C(C(=O)OCC(C)C)C(c2ccc(F)cc2)NC(=O)N1 (centres undefined)	2	2	-50%[inhibitor]	2	-2%	-0.4
CCOc1ccc(S(=O)(=O)N/N=C(\C)c2ccc(OC)cc2OC)cc1	/	-5	7%[15.4 µM]	0	-1%	1.9
CCc1nc(C)ccc1OCC(=O)NCCCN(C)C	30	-1	-33%[inhibitor]	23	12%	-0.7
O=[N+]([O-])c1ccc(S(=O)(=O)Nc2ccc(-c3ccc(N4CCCC4)nn3)cc2)cc1	-12	-22	4%	?	20µM*	1.9
COc1cccc(NC(=O)N2CCCC2C(=O)NCc2ccccc2F)c1 (centres undefined)	/	8	?	3	1%	3.9
Cc1ccc(S(=O)(=O)N2CCOCC2)cc1NC(=O)C(c1ccc(Cl)cc1)C(C)C (centres undefined)	-17	17	-16%	5	1%	-3.3
CC(=O)N1CCN(C(=O)c2cccc(S(=O)(=O)N3c4ccccc4CC3C)c2)CC1 (centres undefined)	-9	0	27%	-6	-1%	-1.2
CCOc1ccc(Oc2ccc(Cl)cc2NC(=O)C2=COCCO2)cc1	-17	-11	0%	-2	-7%	-1.5
COc1cc([N+](=O)[O-])ccc1NC(=O)Nc1cnccn1	5	-1	19%	9	-5%	-0.9
Cc1ccc(-c2nnc(SCC(=O)Nc3cccc(C(=O)N4CCOCC4)c3)n2C)cc1	15	-9	3%[15.4 µM]	-5	3%	-0.2
CCCCNCCCOc1cccc(Cl)c1Cl	-8	-11	14%	-3	6%	2.7
Cc1cc(=O)oc(C)c1C(=O)N1CCc2c([nH]c3ccccc23)C1C(C)C (centres undefined)	-10	-6	-48%[inhibitor]	5	-4%	-6.3
COc1cc(CNCc2cccnc2)ccc1OCC(=O)NC(C)(C)C	/	-9	-3%	4	19%	-4.0
COC(=O)CN1C(=O)Nc2ccc(Br)cc2C1c1ccccc1Cl (centres undefined)	-2	11	-26%	-8	-2%	-5.8
CCc1ccc(CNC(=O)C2CCCN(c3nc4ccccc4o3)C2)cc1 (centres undefined)	0	-7	-29%	-1	13%	-0.1
O=C(COC(=O)c1ccccc1Br)NCC1CCCCC1	-3	-4	-3%[15.4 µM]	2	5%	-1.0
COC(=O)c1cccc(Nc2nc(-c3ccncc3)nc3ccccc23)c1	10	-4	20%[15.4 µM]	-14	3%	1.4
CC(OC(=O)CN1C(=O)c2ccccc2C1=O)C(=O)c1ccccc1 (centres undefined)	/	-3	9%	7	-7%	-3.2
CSc1ccc(CCNC(=O)C2CCCN(c3nn4c(=O)cc(C)nc4s3)C2)cc1 (centres undefined)	-6	-48	?	-12	0%	1.3
CC1=C(C(=O)Nc2ccc([N+](=O)[O-])cc2)C(c2cccc(C(F)(F)F)c2)NC(=S)N1c1ccccc1 (centres undefined)	-14	-13	-1%	-14	-27%	-3.0
O=c1cc(-c2ccccc2O)nc(-c2ccccc2)[nH]1	0	-12	-11%[15.4 µM]	-1	-2%	-4.8
CCCCN(C(=O)c1cc(S(=O)(=O)N2CCCCC2)ccc1Cl)c1c(N)n(CC(C)C)c(=O)[nH]c1=O	-4	-15	-58%[inhibitor]	7	4%	-0.6
CC(=O)Nc1cccc(NC(=O)CS(=O)(=O)c2cn(CC(=O)N3CCOCC3)c3ccccc23)c1	3	-2	0%[15.4 µM]	0	3%	-3.7
Cc1ccc(/C=C(/NC(=O)c2ccccc2)C(=O)NC(Cc2c[nH]c3ccccc23)C(=O)O)cc1 (centres undefined)	3	-5	8%	12	12%	1.3
CC(C)NC(=O)C1(N2C(=O)c3ccccc3C2=O)CCCC1	0	-17	-23%[15.4 µM]	0	-7%	0.8
Fc1cccc(Cl)c1/C=N/Nc1ccccn1	3	-28	-10%[15.4 µM]	0	11%	-0.8
Cc1cc(C)n2c(SCc3ccc(C#N)cc3)nnc2n1	3	8	-1%	-2	17%	7.4
O=C(CS(=O)CC(=O)Nc1ccccc1-c1ccccc1)Nc1ccc(F)cc1 (centres undefined)	0	-10	7%	-1	5%	-1.9
CC12CCC(C(=O)NCCCN3CCOCC3)(C(Br)C1=O)C2(C)C (centres undefined)	-9	-3	-5%[15.4 µM]	-4	11%	-1.4
O=C1C2CCCCN2C(=O)N1CCCCN1CCN(c2cccc(C(F)(F)F)c2)CC1 (centres undefined)	0	-3	?	-5	4%	-1.3
Cc1ccc(C)c(OCC(=O)Nc2ccc(S(=O)(=O)Nc3ccccn3)cc2)c1C	-17	-7	-22%	1	-14%	0.9
CC1(OC(=O)CCc2ccccc2)C(=O)C=C2C=C(c3ccc(C#N)cc3)N(C3CCCC3)C=C2C1=O (centres undefined)	-17	7	/	-15	-28%	2.9
COCCn1c(N)c(Sc2ccc(Cl)cc2)c(=O)[nH]c1=O	8	-3	2%	1	7%	-0.7
Cc1ccc(N2CCN(c3ccc(NCc4nc5ccccc5n4C)cc3)CC2)cc1	?	7	13%	-27	0%	-5.3
COc1ccc(C2c3[nH]c4ccccc4c3C[C@H]3C(=O)N(c4ccccc4C(=O)N4CCC[C@H]4C(=O)O)C(=O)N23)cc1 (some centres undefined)	3	13	/	-1	1%	6.6
COc1ccc(CCNC(=O)c2ccc(SC)cc2OC)cc1	-21	-6	-22%[15.4 µM]	1	8%	6.2
CC1=NN(c2ccccc2)C(=O)C1C(=O)c1ccccc1 (centres undefined)	5	-8	0%	9	-4%	-5.9
CCC(C)(C(=O)NC1CCCCC1)N(Cc1ccco1)C(=O)Cc1cccs1 (centres undefined)	-1	-16	-54%[inhibitor]	1	-2%	-5.0
Cn1cnnc1SCC(=O)NC1CCCN(Cc2ccc(Cl)cc2)C1 (centres undefined)	-4	3	20%	8	11%	-2.6
O=C(C[n+]1ccccc1)N/N=C/c1ccc(O)cc1	-11	-15	-5%[15.4 µM]	4	/	-2.3
Cc1[nH]c2ccccc2c1C(=O)C(=O)NCCC1=CCCCC1	3	-20	-20%	1	-4%	-1.3
Cc1ccn2cc(C(=O)Nc3nnc(C)s3)nc2c1	8	11	-46%	-26	2%	1.6
C=CCSc1nc(=O)n2cccc(C)c2n1	-5	-12	17%	-2	12%	-2.6
O=C(NCCCn1ccnc1)C(=O)NCc1ccc(Cl)cc1	-1	-5	-23%	0	8%	-2.1
CCOC(=O)/C(C#N)=C1/C=CN(C)C=N1	1	-4	?	8	7%	0.2
Cc1ccc(NC2=C(NC(=O)c3ccccc3)C(=O)c3ccccc3C2=O)cc1Cl	0	65*	-5%	-66*	-40%	11
CCc1nc2c(OCc3ccc(OC)cc3)cccn2c1N(C)C(=O)c1ccco1	-6	-12	/	-3	/	-1.9
O=C(CN1C(=O)CCS(=O)(=O)c2ccccc21)Nc1ccc(F)cc1	-23	-10	-20%	10	12%	8.2
Cc1ccc(-c2nnn(CC(=O)N(c3ccc(F)cc3)C(C(=O)NC3CCCC3)c3ccncc3)n2)o1 (centres undefined)	-18	-1	-11%	-18	-2%	2.5
CCNC(=O)NC(=O)COC(=O)C1CSC2(C)CCC(=O)N12 (centres undefined)	-7	-4	19%	-3	9%	-2.5
O=C(NCc1cccnc1)C(=O)NCC1CCCO1 (centres undefined)	6	-12	19%[15.4 µM]	8	13%	-1.4
CC1CCC(NC(=O)CN(C)S(=O)(=O)c2ccc3c(c2)CCC(=O)N3)CC1 (centres undefined)	-4	-11	1%	2	-9%	-0.3
N#CC(=C(c1ccccc1)c1ccccc1)c1ccccc1	-18	-14	-40%[inhibitor]	5	-15%	-0.9
CC(NC(=O)c1ccco1)c1ccc2c(c1)OCO2 (centres undefined)	11	-6	6%	9	5%	0.1

By substructure, the compounds so far with an aryl thioether with sulfur outside any ring
SMILES	CtBP-E1A inh	D2 PAM	gsp ag	Six1-Eya2 inh	gsp antag	D2 agonist
CCCn1c(SCC(=O)Nc2ccc3c(c2)OCO3)n[nH]c1=O	3	-1	23%	11	1%	-2.7
CSc1ccc(CN2CCC(C)(Oc3ccc(-n4ccnc4)cc3)C2)cc1 (centres undefined)	?	-23	/	?	/	11
CC(C)(C)OC(=O)NCCc1nnc(SCc2ccccc2)o1	/	-19	-4%	8	-2%	-3.6
Cc1ccc(-c2nnc(SCC(=O)Nc3cccc(C(=O)N4CCOCC4)c3)n2C)cc1	15	-9	3%[15.4 µM]	-5	3%	-0.2
CSc1ccc(CCNC(=O)C2CCCN(c3nn4c(=O)cc(C)nc4s3)C2)cc1 (centres undefined)	-6	-48	?	-12	0%	1.3
Cc1cc(C)n2c(SCc3ccc(C#N)cc3)nnc2n1	3	8	-1%	-2	17%	7.4
COCCn1c(N)c(Sc2ccc(Cl)cc2)c(=O)[nH]c1=O	8	-3	2%	1	7%	-0.7
COc1ccc(CCNC(=O)c2ccc(SC)cc2OC)cc1	-21	-6	-22%[15.4 µM]	1	8%	6.2
Cn1cnnc1SCC(=O)NC1CCCN(Cc2ccc(Cl)cc2)C1 (centres undefined)	-4	3	20%	8	11%	-2.6
C=CCSc1nc(=O)n2cccc(C)c2n1	-5	-12	17%	-2	12%	-2.6

Compound activity from PubChem BioAssay.
